Screening results (PubChem)
Ecoli growth – blocks Escherichia coli growth | hit rate 0.21% among 330,000 | AID 1053175 | OD600, 23 h; active compounds read low | OD600 absorbance (test concentration not listed);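 active = OD600 absorbance below the run mean of sample wells minus 3.6 SD, in any replicate, cut at about 0.56 in these data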;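 also: stock transfer was 300 nL into about 60 µL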
AF4-AF9 inh – blocks AF4 peptide binding to human AF9; P42568; AlphaScreen, biotin-AF4 peptide binding to FLAG-AF9; inhibition, % at 10 µM; hit rate 0.47% among 350,000;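 active = every replicate reaching a set inhibition limit, whatever the replicate mean, cut at about 25% in these data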;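 also: 0% = plate neutral control median and 100% = total signal loss; the record names both 10 and 1 µM as test concentration; the first replicate is given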
Target sequence (P42568 whole entry, looked up): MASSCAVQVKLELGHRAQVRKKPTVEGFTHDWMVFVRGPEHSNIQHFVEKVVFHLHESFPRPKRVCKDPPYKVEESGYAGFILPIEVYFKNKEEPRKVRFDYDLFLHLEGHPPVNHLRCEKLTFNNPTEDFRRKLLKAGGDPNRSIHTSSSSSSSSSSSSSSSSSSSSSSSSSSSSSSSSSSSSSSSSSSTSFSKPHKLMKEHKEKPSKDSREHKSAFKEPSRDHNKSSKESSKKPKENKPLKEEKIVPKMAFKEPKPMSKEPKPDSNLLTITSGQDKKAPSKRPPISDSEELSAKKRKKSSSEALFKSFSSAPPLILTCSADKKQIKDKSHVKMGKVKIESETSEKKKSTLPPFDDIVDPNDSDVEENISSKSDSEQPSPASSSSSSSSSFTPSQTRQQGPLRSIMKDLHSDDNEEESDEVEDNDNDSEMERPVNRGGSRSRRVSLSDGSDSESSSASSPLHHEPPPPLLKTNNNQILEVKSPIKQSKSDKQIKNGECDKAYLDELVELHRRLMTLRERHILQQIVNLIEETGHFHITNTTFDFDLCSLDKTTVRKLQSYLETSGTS
ALR inh – blocks human ALR sulfhydryl oxidase activity. P55789. purified ALR, DTT oxidation, H2O2 HRP-luminol luminescence. inhibition, % (no concentration beside the values). hit rate 3.8% among 290,000. AID 485317;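 active = mean and each replicate at 75% or more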;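 also: stock transfer was 7.5 nL into about 7.5 µL; 0% = neutral wells and 100% = wells with inactivated enzyme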
Target sequence (P55789 whole entry, looked up): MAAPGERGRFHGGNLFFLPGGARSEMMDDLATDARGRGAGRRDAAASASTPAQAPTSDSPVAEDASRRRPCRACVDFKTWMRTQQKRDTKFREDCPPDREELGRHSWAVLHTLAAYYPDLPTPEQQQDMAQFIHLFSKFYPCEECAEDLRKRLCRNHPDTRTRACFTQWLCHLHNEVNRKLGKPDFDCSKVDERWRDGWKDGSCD
HNF4A DNA FP – change in binding of human HNF4 alpha to DNA | P41235 | hit rate 0.3% among 360,000 | activity change, % at 10 µM | HNF4a-FITC DNA binding, fluorescence polarization, 1 h; in the data active = activity change above about 30%, passing the limit was not always enough;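 also: controls were the assay level and a saturating level of protein; the project sought stronger binding though the title names inhibitors; some compounds called inactive have numbers as strong as hits; positive values seem to mean higher polarization but the record does not say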
FGF22 binding – FGF22 (human) thermal shift binding. AID 651658. recombinant FGF22 thermal shift, SYPRO orange fluorescence; percent of sucrose octasulfate shift, DMSO zero. Q9HCT0. hit rate 1.5% among 340,000. calls only at 9.99 µM;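 active = melting point raised past a set limit in the mean and every replicate; three in four hits are not shown here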
Target sequence (Q9HCT0 whole entry, looked up): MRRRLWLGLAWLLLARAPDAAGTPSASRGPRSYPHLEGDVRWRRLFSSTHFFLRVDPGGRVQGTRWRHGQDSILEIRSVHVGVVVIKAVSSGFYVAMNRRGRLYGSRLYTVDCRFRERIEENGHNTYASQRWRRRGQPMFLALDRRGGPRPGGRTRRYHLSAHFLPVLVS
Ecoli rRNA inh – inhibitors of bacterial rRNA selective over humanized ribosomes; E. coli WT GFP vs humanized-ribosome RFP mutants, fluorescence, 24 h; active compounds read low; DMSO median 0, no signal -100; GFP signal change (wild-type ribosome), % (no concentration beside the values); hit rate 1.6% among 350,000; AID 720706;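 active = significant combined selectivity score with lowered wild-type GFP, culture density cut under 30%, mutant RFP and density less affected; inactive = any of these conditions unmet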; also: one replicate is shown; some compounds called inactive have numbers as strong as hits
Vif A3G – HIV-1 Vif–A3G interaction blockers – biochemical, TR-FRET, GST-Vif 1-94, biotin-A3G peptide, dose response retest, primary screen (AID 1117319); hit rate 0.57% among 260,000; inhibition, %, or IC50 in µM where a hit was titrated; TR-FRET GST-Vif / biotin-A3G peptide binding; higher % means a stronger effect; test concentration not given here; strong numbers were not always called active;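 active = above the screen mean plus three standard deviations and confirmed in dose response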;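 also: Vif residues 1-94 fused to GST binding biotinylated APOBEC3G peptide 110-148; 0% = full assay without inhibitor and 100% = GST in place of GST-Vif; retest series ran down from 100 µM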
Ecoli rRNA inh OD600 – recorded beside Ecoli rRNA inh, whose call it bears; OD600 change, %; measured here: OD600 growth;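 optical density of the mix in the first replicate; 0 = DMSO median and -100 = no signal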
Ecoli rRNA inh RFP – recorded beside Ecoli rRNA inh, whose call it bears; RFP signal change, %; measured here: RFP humanized mutant strains;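 first replicate; 0 = DMSO median and -100 = no signal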
* hit, by the source's call; i = inactive; . = not tested or not shown.

Ecoli rRNA inh	HNF4A DNA FP	Ecoli rRNA inh RFP	Ecoli rRNA inh OD600	FGF22 binding	AF4-AF9 inh	ALR inh	Vif A3G	Ecoli growth	Structure
8	3.1	3.2	11	i	0.2	.	.	.	CCCC(=O)N1CCC1(C)C(=O)NS(=O)(=O)c1ccc(C(C)(C)C)cc1 (centres undefined)
-3	0.2	0.3	1	i	-2.8	.	1%	0.69	Cc1ccc(-n2nc(C)c(NC(=O)COC(=O)c3ccccc3NCCO)c2C)cc1
.	-1.6	.	.	.	.	8	.	0.7	Cc1[nH][nH]c(=O)c1C(c1ccc(O)c([N+](=O)[O-])c1)c1c(C)[nH][nH]c1=O
.	12	.	.	i	19	.	-3%	.	O=c1c2ccccc2sc2c(CO)ccc(NCCN3CCCCC3)c12
8	-0.1	0.0	9	i	-1.0	-2	.	0.67	O=C(NCCCN1CCOCC1)C1CCN(S(=O)(=O)c2cccc(Cl)c2Cl)CC1
11	2.0	11	9	i	-15	-7	.	0.69	O=C(Nc1ccc(-c2ccccc2)cc1)c1ccc2c(c1)S(=O)(=O)c1ccccc1C2=O
1	2.6	1.9	1	i	6.3	.	2%	0.67	COc1ccc(NC(=O)CN(C)C(=O)CCSc2ccc(F)cc2)cc1
1	.	9.4	-5	i	-0.5	.	.	.	CC(C)CC#Cc1cnc2c(c1)C(=O)N([C@H](C)CO)C[C@@H](C)[C@H](CN(C)S(=O)(=O)c1ccccc1)O2
2	.	0.2	-9	i	-3.8	.	.	.	C[C@H](CO)N1C[C@H](C)[C@@H](CN(C)Cc2ccc3c(c2)OCO3)Oc2ccc(NC(=O)c3ccncc3)cc2C1=O
-2	3.1	-3.4	2	i	1.2	7	.	0.66	COc1ccc(N(C(C)=O)c2nc3ccccc3[nH]2)cc1
-23	2.1	-4.0	-51	i	-23	0	0%	.	O=c1c2cc(Br)ccc2nc(-c2cccc(Cl)c2)n1O
-18	.	33	-52	i	6.4	.	.	.	CC(C)CC#Cc1cnc2c(c1)C(=O)N([C@@H](C)CO)C[C@@H](C)[C@H](CN(C)Cc1ccccc1F)O2
17	-0.2	0.1	13	i	-1.9	-10	24%	0.71	Cc1ccc[n+](CC(=O)Nc2cccc([N+](=O)[O-])c2)c1
-4	.	0.1	-5	i	2.4	.	.	.	COc1ccc(-c2ccc3c(c2)O[C@H](CN(C)Cc2ccccc2C(=O)O)[C@@H](C)CN([C@H](C)CO)S3(=O)=O)cc1
-11	-2.8	-2.7	-15	i	4.4	-20	.	0.7	COc1ccc(NC(=O)CSc2nccn2Cc2ccccc2)c(OC)c1
.	0.9	.	.	.	.	-52	3%	0.69	COc1ccc(OC)c(NC(=O)CCN2CCN(Cc3ccccc3)CC2)c1
9	0.4	1.6	13	i	-11	.	.	0.69	COCCNC(=S)N1CCC(NC(=O)c2ccco2)CC1
0	-1.0	-0.3	-12	i	3.7	-3	.	.	C/C(=N\NC(=O)c1ccco1)c1cccc2ccccc12
.	7.2	.	.	.	.	.	8%	0.68	COc1cccc(Oc2ccc(N)cc2)c1
-2	2.6	-1.9	-9	i	-1.0	2	.	0.71	COc1ccc(OCCCC(=O)N(C)CC(=O)Nc2ccccc2Cl)cc1
16	-0.7	-5.7	2	i	1.6	-8	13%	0.75	O=C(CSc1cc([N+](=O)[O-])cc(S(=O)(=O)Cc2ccccc2)c1)NC1CC1
-2	-3.8	-3.6	5	i	1.4	.	.	.	CC(C)(C)OC(=O)N(Cc1ccccc1)Cc1ccc(OCc2cccc(NC(=O)C3CC3)c2)cc1
-2	.	1.6	-4	i	-14	.	.	.	O=C(Nc1ccc(Cl)cc1)N[C@H]1CC[C@@H](CCn2cc(C3(O)CCCC3)nn2)O[C@@H]1CO
-2	-2.0	7.5	2	i	1.1	8	2%	.	Cc1ccc(C(=O)/C=C\NCc2ccccc2)cc1
-3	-2.9	11	-10	i	0.3	-13	-1%	0.71	Cc1ccc(C)c(Cn2nnc3c(=O)[nH]c(C4CCCN(C(=O)CC(C)C)C4)nc32)c1 (centres undefined)
5	0.1	6.1	7	i	-2.5	0	0%	0.67	O=C(Nc1nccs1)c1ccc(-c2cccc([N+](=O)[O-])c2)o1
.	-3.0	.	.	.	.	-7	7%	0.69	COc1ccc(N2C(=O)CC2(/C=C/c2ccccc2OC)C(=O)NC2CCCC2)cc1 (centres undefined)
-2	.	-0.1	-3	i	-5.4	.	.	.	C[C@@H]1CN([C@@H](C)CO)S(=O)(=O)c2ccc(C#Cc3ccccc3)cc2O[C@H]1CN(C)S(=O)(=O)c1cn(C)cn1
.	-1.2	.	.	.	.	-4	-5%	0.72	CCN(CC)S(=O)(=O)c1ccc(C(=O)OCn2nnc3ccccc3c2=O)cc1
.	1.8	.	.	.	.	-8	0%	0.75	O=C1CCC(=O)N1CN(C(=O)c1ccco1)c1ccccc1
8	-0.9	-1.3	1	i	-2.0	.	4%	0.66	CCc1cc(C(=O)N2CCCC(CCC(=O)NCc3cccc(OC)c3)C2)no1 (centres undefined)
4	-1.3	1.0	20	.	-27	-4	-4%	0.71	CS(=O)(=O)N(CC(=O)NCc1ccco1)c1cc(C(F)(F)F)ccc1Cl
6	1.6	-2.1	1	i	0.5	-8	.	0.66	Cc1ccc(S(=O)(=O)NC2CC(C)(C)NC(C)(C)C2)c(C)c1C
-56	.	-12	-75	i	6.2	.	.	.	C[C@@H]1CN([C@@H](C)CO)C(=O)c2cccc(NC(=O)Nc3ccc(C(F)(F)F)cc3)c2O[C@@H]1CN(C)Cc1ccccc1
.	1.8	.	.	.	.	-9	2%	0.68	c1csc(-c2nn3c(Cn4cnc5ccccc54)nnc3s2)c1
1	-0.4	0.4	2	i	-1.9	-5	.	0.71	Cc1cc(C)n(CC(=O)NNC(=O)CCCOc2ccc(Cl)c(C)c2)n1
.	-1.0	.	.	.	.	-4	11%	0.68	O=C(CCN1CCCCC1)NCC1OCCc2ccccc21 (centres undefined)
6	2.5	-0.9	4	i	-0.7	0	-5%	0.64	O=C(Cc1cccs1)N1CCN(S(=O)(=O)c2ccc(F)cc2)CC1
7	-3.0	1.6	3	i	-1.0	.	17%	0.72	C=C(C)C(=O)Oc1ccc(N2C(=O)CCC2=O)cc1
0	.	-0.5	7	i	-2.7	.	.	.	Cc1ccc(S(=O)(=O)N(C)C[C@@H]2Oc3cc(C#Cc4ccccc4)ccc3S(=O)(=O)N([C@H](C)CO)C[C@@H]2C)cc1
.	-2.0	.	.	.	.	-1	3%	0.69	Cc1ccc2ccccc2c1Cn1c(-n2ccnc2)nc2c1c(=O)n(C)c(=O)n2C
2	-0.4	-4.7	-10	i	-2.2	.	-3%	0.74	CCCc1cc(C(=O)Nc2sc(C)c(CC)c2C#N)no1
2	.	-1.4	12	i	-1.4	.	.	.	C[C@H]1CN([C@@H](C)CO)C(=O)c2cc(NC(=O)C3CC3)ccc2O[C@H]1CN(C)S(=O)(=O)c1cccs1
-6	5.8	4.6	-3	i	-1.0	98*	7%	0.66	Cc1cccc(NC(=O)CSCC(=O)Nc2sccc2C#N)c1
-5	5.0	2.4	-16	i	3.1	2	0%	0.67	CSc1cccc(N2CC(C(=O)Nc3ccccc3N3CCCC3)CC2=O)c1 (centres undefined)
.	-0.9	.	.	.	.	1	20%	0.68	CCCCN(CC)S(=O)(=O)c1ccc(C(=O)Nc2nnc(COC)o2)cc1
9	1.9	0.6	9	i	-6.0	.	.	.	CCCCCCCCCCCCN1[C@@H](CC(C)=O)c2cc(F)cc(F)c2S1(=O)=O
.	-0.4	.	.	i	0.9	-6	-14%	0.7	Cc1ccc(NC(=O)CCNC(=O)c2ccc([N+](=O)[O-])cc2)cc1S(=O)(=O)N1CCOCC1
.	4.1	.	.	.	.	36	18%	0.64	CN1C(=O)/C(=C2/C=CC=CN2C)OC1=S
.	-0.9	.	.	.	.	-7	8%	0.68	COc1ccc(CCNC(=O)c2cc(-c3ccccc3OC)on2)cc1OC
11	3.7	1.2	-6	i	0.3	1	29%	0.64	Cc1ccc2oc(=O)n(CC(=O)c3ccc(F)cc3)c2c1
7	2.6	0.9	9	i	1.1	-4	.	0.65	O=C(COc1ccc(S(=O)(=O)N2CCOCC2)cc1)NCCCn1ccnc1
-1	0.3	-4.7	5	i	-2.6	0	.	0.66	O=C(NC1CC1)C1CC(=O)N(c2ccc(F)cc2)C1 (centres undefined)
-4	0.8	-1.4	3	i	-9.4	96*	.	0.66	O=c1ccc2cc(O)c(O)cc2o1
.	-0.1	.	.	.	.	.	0%	0.74	O=C(CCN1C(=O)C2C3C=CC(C3)C2C1=O)Nc1ccc(F)cc1 (centres undefined)
3	0.7	-4.7	-4	i	-0.4	-2	-2%	0.69	Cc1ccc(NC(=O)CCn2nnc3ccccc32)cc1
-28	0.8	0.6	-58	i	0.3	.	.	.	CCOC1=C2[C@@H](CN(S(=O)(=O)c3ccc(C)cc3)[C@H]2c2cccc3ccccc23)[C@H]2C(=O)NC(=O)[C@H]2C1
19	1.1	-0.2	9	i	-2.1	5	-7%	.	CN1C(=O)/C(=C2\SC(=S)N(CCCCCC(=O)O)C2=O)c2ccccc21
-4	-2.6	-3.6	1	i	-1.4	0	6%	0.65	O=S(=O)(CCN1C=CC(C(F)(F)F)=NCC1)c1ccc(F)cc1
-6	4.0	-0.2	9	i	5.0	6	-11%	.	COc1ccc(/C=N/Nc2cc(C)nc(N3CCOCC3)n2)cc1OC

Molecules from the list above that have a tert-butyl group:
Ecoli rRNA inh	HNF4A DNA FP	Ecoli rRNA inh RFP	Ecoli rRNA inh OD600	FGF22 binding	AF4-AF9 inh	ALR inh	Vif A3G	Ecoli growth	Structure
8	3.1	3.2	11	i	0.2	.	.	.	CCCC(=O)N1CCC1(C)C(=O)NS(=O)(=O)c1ccc(C(C)(C)C)cc1 (centres undefined)
-2	-3.8	-3.6	5	i	1.4	.	.	.	CC(C)(C)OC(=O)N(Cc1ccccc1)Cc1ccc(OCc2cccc(NC(=O)C3CC3)c2)cc1

Printed as active in ALR inh, of those listed so far:
Ecoli rRNA inh	HNF4A DNA FP	Ecoli rRNA inh RFP	Ecoli rRNA inh OD600	FGF22 binding	AF4-AF9 inh	ALR inh	Vif A3G	Ecoli growth	Structure
-6	5.8	4.6	-3	i	-1.0	98*	7%	0.66	Cc1cccc(NC(=O)CSCC(=O)Nc2sccc2C#N)c1
-4	0.8	-1.4	3	i	-9.4	96*	.	0.66	O=c1ccc2cc(O)c(O)cc2o1

More structures
Ecoli rRNA inh	HNF4A DNA FP	Ecoli rRNA inh RFP	Ecoli rRNA inh OD600	FGF22 binding	AF4-AF9 inh	ALR inh	Vif A3G	Ecoli growth	Structure
10	1.3	-1.7	5	i	-8.5	28	-2%	0.72	O=C(NC(=S)Nc1ccccc1O)c1cccnc1
19	1.9	3.9	19	i	-2.6	-5	.	0.61	O=C(N1CCOCC1)N1CCN(S(=O)(=O)c2cccc([N+](=O)[O-])c2)CC1
-8	2.3	18	22	i	-0.3	-6	13%	0.67	COc1ccc(S(=O)(=O)NCC2CCCN(C(=O)CN3CCCCC3)C2)cc1 (centres undefined)
4	.	1.8	-3	i	0.8	.	.	.	C[C@H]1CN([C@@H](C)CO)C(=O)Cc2cc(NS(=O)(=O)c3ccccc3)ccc2O[C@@H]1CN(C)Cc1ccc(Oc2ccccc2)cc1
1	.	-0.3	-2	i	0.0	.	.	.	CN1C(=O)c2cc(NC(=O)c3cnccn3)ccc2OC[C@@H]2O[C@@H](CC(=O)NCC3CCCCC3)CC[C@H]21
3	4.0	-2.4	3	i	7.4	.	.	.	CCc1nc2ccc(C(=O)NCCc3c[nH]c4ccccc34)cn2c1N(C)Cc1nccn1C
-3	1.9	1.4	-1	i	1.9	-15	2%	0.7	COc1ccc(C2(c3ccc(OC)cc3)NC(=O)N(CC(=O)Nc3ccc(C(=O)N(C)C)cc3)C2=O)cc1

These rows are one share of the data (hit frequency here may not be typical).
